Assay outcomes as filed in PubChem.
ClpP mod: qHTS Assay for Activators of ClpP | ATP-dependent Clp protease proteolytic subunit (Bacillus subtilis (strain 168)), P80244 | purified B. subtilis ClpP, FRET peptide cleavage, 20 min | Potency, µM (top dose mostly 57.5 µM), for the others: top-dose activity change, negative = active | 1.9% of 340,000 active; active = well fitted falling curve with a large enough effect; inconclusive = small, poorly fitted or top-dose-only effect; inactive = no such curve, though single readings can be large or run the other way; note: potency is the fitted concentration of half-maximal effect; the source files actives as falling curves though it sought activators and does not explain the sign; nearly all actives have a fitted effect of over 65% in size; many hits overshoot -100%
Target sequence (P80244 whole entry, looked up): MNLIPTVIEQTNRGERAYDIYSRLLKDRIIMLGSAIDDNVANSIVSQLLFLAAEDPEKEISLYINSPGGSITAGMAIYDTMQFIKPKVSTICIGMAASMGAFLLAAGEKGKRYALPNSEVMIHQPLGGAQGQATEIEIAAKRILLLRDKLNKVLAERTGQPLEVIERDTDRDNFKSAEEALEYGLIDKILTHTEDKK
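Purified B. subtilis ClpP, 10 microg/mL final in Tris/HCl pH8 with KCl, BSA, glycerol and Tween-20, cleaved an Abz/nitrotyrosine-quenched decapeptide. Fluorescence (ex 320, em 430) was read at 0 and 20 min at room temperature. Delta was normalized to 5.8 microM ADEP and DMSO/no-enzyme controls.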
CtBP-E1A inh: CtBP/E1A binding inhibition; AID 651724; activity change, % (no concentration beside the values); 0.49% of 340,000 active; AlphaScreen GST-E1A/His-CtBP binding, 1536-well; active compounds read low; control for the full effect not named in the record; in the data active means activity change below about -65%; inconclusive means about -30% to -65%; inactive means above about -30%; note: % is set by controls: 0 for no effect and ±100 for the full control effect
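Protein mix (5X: 125 nM each GST-E1A, His-CtBP) was incubated with pinned compound 2 h at 37 deg C in dark, in 50 mM Tris pH 8.0 buffer with 300 mM NaCl. Glutathione donor and nickel acceptor beads followed; AlphaScreen signal read after 1 h.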
gsp ag: activates gsp, the McCune-Albright syndrome mutation. gsp mutant cells, cAMP HTRF, 30 min; control for the full effect not named in the record. Potency, µM (top dose mostly 76.9 µM), inactives show top-dose activation (cAMP increase), hits mostly activators. 0.13% of 340,000 active. AID 624287; active = well fitted activation curve with a large enough effect; inconclusive = small, poorly fitted or top-dose-only effect, or another doubt; inactive = no such curve, though single readings can be large or run the other way; cell line not stated here;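 note: phosphodiesterase inhibitor Ro 20-1724 added with compounds to block cAMP breakdown; potency is the fitted concentration of half-maximal effect; nearly all actives have a fitted effect of over 60% in size; about a fifth of the inactives were tested at one dose only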
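Cells in DMEM/10% FBS with G418 were pretreated with compounds in DMSO plus […] (300 uM stock) for 30 min at 37C. cAMP was measured by HTRF (cAMP-d2 plus anti-cAMP antibody-K) after 30 min at room temperature.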
gsp antagonist: antagonizes gsp, the McCune-Albright syndrome mutation; gsp-mutant cells, cAMP HTRF, 30 min; control for the full effect not named in the record; Potency, µM (doses to about 76.9 µM), for inactives: top-dose activity change, negative = inhibition, actives largely listed as inhibitors; 0.4% of 340,000 active; AID 624288; active = falling curve of any shape with a large fitted effect; inconclusive = falling curve, mostly with a smaller effect; inactive = flat or rising curve; cell line not stated here;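 note: intracellular cAMP measured with PDE inhibitor Ro 20-1724 present during compound exposure; potency is the fitted concentration of half-maximal effect; % is set by controls: 0 for no effect and ±100 for the full control effect; nearly all actives have a fitted effect of over 65% in size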
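HTRF cAMP measurement after 30 min RT detection following 30 min, 37C compound treatment alongside […] (added as 300 uM solution) in G418-selected cells seeded at 2000/well and grown 16–24 h.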
Menin MLL FP FL: displaces fluorescein MLL peptide from human menin | AID 1766 | FP activity change, % at 61.4 µM | Fluorescence polarization, fluorescein-MLL peptide displacement from menin | 290,000 tested, under 10 active; inconclusive = falling polarisation curve, or a change in total fluorescence; inactive = total fluorescence flat and polarisation flat or rising; no compound was filed as active; the % refers to the polarisation; negative = inhibition;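 note: % of control where 0% means no effect; inhibitors lower the polarisation; unlabelled MLL peptide was the positive control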
Sfp inh: blocks B. subtilis Sfp PPTase activity; Q9F4F7; Biochemical Sfp PPTase activity, qHTS; Potency, µM, for the others: max response, negative = inhibition, usual class: inhibitors; 3.5% of 310,000 active; active = well fitted inhibition curve with a large enough effect; inconclusive = small, poorly fitted or top-dose-only effect, or another doubt; inactive = no such curve, though single readings can be large or run the other way;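 note: the enzyme is Sfp with the accession as filed and its product quenches rhodamine fluorescence; potency is the fitted concentration of half-maximal effect; 0% = enzyme reaction without inhibitor and -100% = no enzyme wells; top concentration of the series not given in the record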
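With Hepes-Na pH 7.6 buffer containing 10 mM MgCl2, Sfp (15 nM) modified BHQ-2-YbbR (12.5 uM) using rhodamine-CoA (5 uM). Two reads 30 minutes apart at 525/598 nm yielded each well's rate.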
TRPV1 PAM: human TRPV1 potentiation | TRPV1-expressing cells, Fluo-8 calcium influx, capsaicin EC20 potentiation; host cell line not named in the record; control for the full effect not named in the record | potentiation, % at 8.33 µM | 0.02% of 320,000 active | AID 540277; active means potentiation above 80%; inconclusive means 30% to 80%; inactive means below 30%; note: 0% is about no effect
Target sequence (Q8NER1 whole entry, looked up): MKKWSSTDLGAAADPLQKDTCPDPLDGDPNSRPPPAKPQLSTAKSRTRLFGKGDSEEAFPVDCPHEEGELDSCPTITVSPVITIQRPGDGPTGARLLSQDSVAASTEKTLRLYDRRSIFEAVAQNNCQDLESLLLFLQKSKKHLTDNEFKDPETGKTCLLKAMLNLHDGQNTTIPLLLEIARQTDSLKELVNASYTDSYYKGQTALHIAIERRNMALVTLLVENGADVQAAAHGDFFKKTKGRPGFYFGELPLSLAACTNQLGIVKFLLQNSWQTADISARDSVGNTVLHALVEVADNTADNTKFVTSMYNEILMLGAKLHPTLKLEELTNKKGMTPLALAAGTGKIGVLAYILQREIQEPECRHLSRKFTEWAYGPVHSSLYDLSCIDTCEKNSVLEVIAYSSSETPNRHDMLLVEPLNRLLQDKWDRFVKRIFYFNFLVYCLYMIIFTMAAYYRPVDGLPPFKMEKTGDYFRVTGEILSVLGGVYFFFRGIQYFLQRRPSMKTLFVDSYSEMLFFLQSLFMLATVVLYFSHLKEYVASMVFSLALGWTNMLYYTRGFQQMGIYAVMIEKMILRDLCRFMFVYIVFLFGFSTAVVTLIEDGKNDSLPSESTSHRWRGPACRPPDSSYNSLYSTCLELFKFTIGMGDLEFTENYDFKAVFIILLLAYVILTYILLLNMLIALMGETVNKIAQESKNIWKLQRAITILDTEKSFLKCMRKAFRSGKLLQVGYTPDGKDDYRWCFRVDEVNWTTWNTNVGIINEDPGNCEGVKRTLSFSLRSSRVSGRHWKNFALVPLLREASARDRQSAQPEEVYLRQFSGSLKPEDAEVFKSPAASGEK
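TRPV1-expressing cells were cultured overnight at 35.5C and loaded with Fluo-8 calcium dye for 40 to 90 min at room temperature. After a 10 s baseline, compound was added and calcium influx was read kinetically for 3 min (ex 480/em 520 nm).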
* marks the source's active call; other numbers are inactive results; ? = inconclusive; . = not tested or not shown; & = joins results of further samples; ! = a repeat was not active; [ ] = remark or other dose.

SMILES	ClpP mod	CtBP-E1A inh	gsp ag	gsp antagonist	Menin MLL FP FL	Sfp inh	TRPV1 PAM
CCCNC(=O)N1[C@H]2CC[C@@H]1C(C(=O)OC)=C(c1ccc(C(C)=O)cc1)C2	1.1%	5	12%	7%	.	.	1
Cc1cc(C)nc(-n2c(C)nc3cc(Cl)ccc3c2=O)c1	1.5%	5	4%	5%	4.5	11%	-8
O=C1NC(=O)N(c2ccccc2)C(=O)/C1=C\c1ccc2c3c(cccc13)CC2	.	.	.	.	6.1	40µM*	1
C=C(C)C1(CCCC)C(=O)NC(=S)NC1=O	0.8%	4	-7%	13%	.	.	.
C=CCn1c(O)c(C=NC2CCN(Cc3ccccc3)CC2)c(=O)[nH]c1=O	1.3%	.	25%	-13%	6.4	11%	12
Cc1[nH]n(-c2ccccc2)c(=O)c1C(c1cccc([N+](=O)[O-])c1O)c1c(C)[nH]n(-c2ccccc2)c1=O	-1.7%	-23	0%[15.4 µM]	?	4.7	-5%	11
CCOc1ccc(N2C(=O)NC(=O)/C(=C/c3cnc(SC)nc3)C2=O)cc1	.	-1	7%	8%	?	28µM*	-3
C=CCn1c(O)c(C(CC)=Nc2ccc(N(CC)CC)cc2)c(=O)[nH]c1=O	0.6%	0	-30%[inhibitor]	-13%	5.2	?	-11
N#CC1=C(N)Oc2c(c(=O)oc3ccccc23)C1c1cccnc1 (stereo unspecified)	8.2%	0	?	-1%	2.7	-8%	-7
CC(=O)N1N=C(c2cccnc2)CC1c1ccccc1O (stereo unspecified)	.	3	-9%[15.4 µM]	.	-1.1	12%	-6
Cn1c(O)c(C(c2ccccn2)c2c(O)n(C)c(=S)[nH]c2=O)c(=O)[nH]c1=S	-1.4%	-16	-7%	-7%	1.4	79µM*	.
CN(C)c1ccc(/C=C2/C(=O)NC(=O)N(Cc3ccco3)C2=O)cc1	0.8%	-6	-17%	-34%	?	-19%	14
COc1ccc2c(c1)CC1(CN2C)C(=O)NC(=O)N(c2ccc(F)cc2)C1=O (stereo unspecified)	1.7%	0	3%	8%	3.4	4%	-6
COc1ccc(OC)c(NC2=NCCCS2)c1	-0.2%	1	4%[15.4 µM]	9%	-3.3	7%	0
Cc1ccc(Cn2nnnc2CN2CCC(n3nnc4ccccc43)CC2)cc1	0.8%	6	-2%	-6%	3.8	3%	.
C[N+](C)(C)CC#CCN1CCCC1=O	0.0%	9	.	-14%	.	7%	.
CC(Cc1ccccc1)[n+]1cc(/N=C(\[O-])Nc2ccccc2)on1 (stereo unspecified)	-2.4%	-9	20%	2%	0.7	5%	?
O=C(Cn1cnc2ccccc2c1=O)NCCC(=O)N1CCC2(CC1)OCCO2	1.4%	4	13%	16%	-0.1	13%	-1
CC(=NCc1ccc(F)cc1)c1c(O)n(C)c(=O)n(C)c1=O	0.3%	2	10%	7%	5.0	21%	12
CCC(=NCC1CCCO1)c1c(O)n(-c2ccc(OC)cc2)c(=O)[nH]c1=O (stereo unspecified)	.	-26	26%	-3%	1.0	22%	-2
C=CCn1c(O)c(C(C)=Nc2cccc(C(F)(F)F)c2)c(=O)[nH]c1=O	-2.6%	7	13%[15.4 µM]	-6%	3.3	-9%	1
CCC(=Nc1ccc(Cc2ccncc2)cc1)c1c(O)n(C)c(=O)n(C)c1=O	0.3%&1.7%	-2	?	-5%	0.1	5%	4
O=C(Nc1ccc(F)c([N+](=O)[O-])c1)N1C[C@H]2C[C@@H](C1)c1cccc(=O)n1C2	-1.3%	4	?	5%	.	11%	10
CN(C)c1ccc2c(c1)N=C(c1ccco1)OP2(=S)N1CCOCC1 (stereo unspecified)	-0.5%	2	-1%	-6%	0.5	14µM*	6
O=C1NC(=O)N(Cc2ccc(F)cc2)C(=O)/C1=C\c1ccoc1	.	5	8%[15.4 µM]	-1%	?	-28%	-17
O=P(O)(O)C#Cc1ccccc1	.	.	.	.	3.8	24%	9
CC[N+](CC)(CC)CCCCCCCCCC[N+](CC)(CC)CC	1.4%	6	4%	1%	-0.1	11%	9
CC[C@@H](C)[C@H](C(CC(=O)N1CCCC1[C@@H](OC)[C@H](C)C(=O)N[C@H](Cc1ccccc1)c1nccs1)OC)N(C)C(=O)[C@H](NC(=O)[C@@H](C(C)C)N(C)C)C(C)C (stereo partly specified)	-2.3%	-10	16%	4%	.	.	.
O=C1Nc2ccccc2Oc2ccccc21	-0.5%	-5	-14%	.	.	.	.
CCc1ccc(CN2CCCC(C(=O)c3sccc3C)C2)o1 (stereo unspecified)	1.5%	9	-29%	-10%	-8.9	13%	-5
Cc1ccc(N=C(/N=C(\N)N[N+](=O)[O-])Nc2ccc(C)cc2)cc1	.	2	-13%	8%	.	.	.
CC(=O)O[C@@H]1CC[C@]2(C)C3CC[C@@]4(C)C(C[C@@H](O)[C@@H]4O)C3[C@@H](OC(C)=O)C[C@H]2C1 (stereo partly specified)	.	17	18%	0%	.	.	.
O=[N+]([O-])NC1=NCN(Cc2ccco2)CN1Cc1ccco1	-1.0%	4	16%	8%	.	?	-11
CC(=O)O[C@H]1CC[C@]2(C)C3CC[C@@]4(C)C(C[C@@H](O)[C@@H]4O)C3[C@@H](OC(C)=O)C[C@H]2C1 (stereo partly specified)	3.3%	21	-110%[inhibitor]	.	.	.	.
O=C1NC(=O)C(CCc2ccncc2)(c2ccccc2)C(=O)N1	0.6%	7	-27%	4%	3.3	10%	-6
COC(=O)C1C(C(=O)O)C2(Cl)C(Cl)=C(Cl)C1(Cl)C2(Cl)Cl (stereo unspecified)	.	3	16%	0%	.	.	.
COC(=O)C1=C(c2ccc(OC)c(OC)c2)C[C@@H]2CC[C@H]1N2C(=O)NCc1ccc(F)cc1	2.5%	3	-6%	5%	.	.	-15
Cc1ccccc1CN1CCCN(Cc2ccc(Cl)cc2)S1(=O)=O	.	32	-1%[15.4 µM]	10%	0.3	0%	13
O=c1[nH]c(=O)n(CCc2ccccc2)c(O)c1C=NCc1ccc2c(c1)OCO2	1.1%	-9	16%	7%	4.9	-15%	14
CCN1CCN(Cc2cc(OC)c3c(c2)OCO3)CC1	-0.8%	9	-28%	11%	2.0	-16%	-1
C[C@H]1CN([C@@H](C)CO)C(=O)CCCn2nncc2CO[C@@H]1CN(C)C(=O)Oc1ccccc1	1.1%	1	-37%[inhibitor]	.	.	.	.
CCCCCCn1c(=O)c(C(=O)Nc2cnccn2)c(O)c2ccccc21	.	3	-5%[15.4 µM]	13%	-0.3	8%	3
O=C(c1cc(Br)ccc1Cl)N1CCC2(CC1)OCCO2	1.0%	4	-10%	-7%	0.0	-1%	2
FC(F)(F)c1ccc2c(c1)ncn2C1CCN(Cc2nnnn2C2CCCCC2)CC1	1.8%	-1	28%	-6%	3.7	1%	27
CC(C)CC(=O)Nc1ccc(S(=O)(=O)N2CC3CC(C2)c2cccc(=O)n2C3)cc1 (stereo unspecified)	-0.4%	-13	12%[15.4 µM]	6%	.	.	14
COc1ccc(C(CC(=O)N2CCC3(CC2)OCCO3)NS(=O)(=O)c2ccc(OC)cc2)cc1 (stereo unspecified)	-1.3%	13	18%	3%	-5.0	11%	0
Cc1cc(C)c(C2=NOC(O)(C(F)(F)F)C2)c(=O)[nH]1 (stereo unspecified)	-16%	12	-20%	4%	-2.0	17%	8
O=C(NCC1=C(c2cccc3ccccc23)C[C@@H]2CC[C@H]1N2Cc1ccco1)c1ccncc1	-1.5%	-3	-35%[inhibitor]	.	.	.	.
C=Cn1ccnc1P(=S)(c1ccc(Cl)cc1)c1nccn1C=C	.	0	-11%	12%	1.4	3%	4
Cc1cccc(CC(c2cccc(C)c2)N(C)C)c1 (stereo unspecified)	.	-16	-46%[inhibitor]	9%	.	.	.
O=c1[nH]c(=O)n(CCC2=CCCCC2)c(O)c1C=NCc1cccnc1	-2.3%	-1	?	3%	-0.2	-2%	-23
Cc1cc2c(C(C)C)c(O)c(O)c(C=O)c2c(O)c1-c1c(C)cc2c(C(C)C)c(O)c(O)c(C=O)c2c1O	-1.3%	.	.	.	?	89µM*!	-13&6
Cn1nnc2cc(NC(=O)Nc3cccc(Cl)c3)ccc21	3.3%	1	22%	-13%	-11	13%	?
CCN(CC)C(=O)c1ccc(NC(=O)c2ccc(N3CCCC3=O)cc2)cc1	1.7%	.	?	8%	.	.	5
COc1ccccc1-n1c(O)c(C=Nc2c(C)n(C)n(-c3ccccc3)c2=O)c(=O)[nH]c1=O	0.0%	8	11%	9%	-1.3	11%	8
COC(=O)C1=C(c2ccc(F)cc2F)C[C@@H]2CC[C@H]1N2C(=O)N1CCCCC1	-3.4%	5	1%	0%	.	.	-13
C[C@]12CC[C@@H]3c4cc(O)c(O)cc4CC[C@H]3[C@@H]1CC[C@@H]2O	0.9%	0	.	-6%	1.5	4µM*	0
CCC(C)NC(=O)c1c(N)n(Cc2ccc3c(c2)OCO3)c2nc3ccccc3nc12 (stereo unspecified)	?	41	-8%	19%	6.6	-7%	-5
c1ccc2c(CN3CCOCC3)c[nH]c2c1	-1.0%	9	4%	9%	-1.0	4%	-2
CN(C(=O)Oc1ccc(F)cc1)c1ccccc1	-1.6%	-12	-3%[15.4 µM]	5%	-6.0	10%	1
Additional structures follow:
SMILES	ClpP mod	CtBP-E1A inh	gsp ag	gsp antagonist	Menin MLL FP FL	Sfp inh	TRPV1 PAM
Cc1ccc(-c2n[nH]c(=S)n2-c2ccccc2)cc1	?	-6	?	-1%	2.1	79µM*	-9
Cc1cc(N2CCNCC2)nc2ccccc12	.	7	24%	11%	3.9	4%	4
COCCNC(=O)N1[C@H]2CC[C@@H]1C(C(=O)OC)=C(c1ccc(-c3ccccc3)c(F)c1)C2	0.8%	-1	.	-15%	.	.	-1
CCCCC(=O)N/N=C/c1c(O)n(Cc2ccc(F)cc2)c(=O)[nH]c1=O	-3.8%	?	11%[15.4 µM]	-10%	?	16%	28

Some of the compounds tested; rates above refer to the full screens.
